MgrA-DNA mod – modulators of Staphylococcus aureus MgrA DNA binding. 0.13% of 84,000 active. inhibition, %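 (about 10 µg/mL by stock and volumes)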. fluorescence polarization. AID 602314;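 active = above 50% in either of two replicates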;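 note: 0% = protein plus DNA without compound and 100% = DNA alone without protein; higher means less MgrA bound to DNA so lower polarization; one replicate is shown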
S aureus helic – blocks Staphylococcus aureus DNA helicase | purified S. aureus helicase, fluorescence unwinding assay; about half of the hits fall short of the stated cut | inhibition, %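 (tested at about 80 µM)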 | 0.05% of 120,000 active | AID 485395;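 active = both duplicates at 50% or more, or one of them with a favoured structure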;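 note: 0% = mean of negative control wells and 100% = mean of positive control wells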
* = called active by the depositor; & = joins results of further samples. Only part of the results is shown; count on the stated rates, not on these rows.

Results for O=C(Nc1ccc(N2CCOCC2)cc1)Nc1cccc(C(F)(F)F)c1 ?
S aureus helic: 12

How did COc1cccc(-c2cc(C(=O)NCc3cccnc3)on2)c1 do in these assays?
S aureus helic: 15

How did CN1CCC(N(C)C(=O)CCCc2nc3ccccc3s2)CC1 do in these assays?
S aureus helic: 9

How did CCOc1ccc(NC(=O)CC2C(=O)N(Cc3ccco3)C(=S)N2CCNC(C)=O)cc1 (stereo unspecified) do in these assays?
S aureus helic: 16

How did COc1ccc(NC(=O)c2scc(S(=O)(=O)C(C)C)c2N)cc1 do in these assays?
MgrA-DNA mod: -6.0

Results for COc1cc(OC)cc(C2NC(C(=O)O)CS2)c1 (stereo unspecified) ?
MgrA-DNA mod: -1.3

What do the screens show for `O=C(O)/C=C/C(=O)c1ccc(F)cc1`?
MgrA-DNA mod: 16; S aureus helic: 2

What do the screens show for `CCOC(=O)C(Cc1c[nH]c2ccccc12)NS(=O)(=O)c1ccc(Cl)cc1` (stereo unspecified)?
MgrA-DNA mod: -0.6

What do the screens show for `CC(C)(C)OC(=O)N1CCC2(CC1)C(C#N)=C(N)OC1=C2C(=O)CCC1`?
MgrA-DNA mod: -1.9; S aureus helic: 7

Results for COC(=O)c1ccc(Oc2nc(N(C)C)nc(N(C)C)n2)cc1 ?
MgrA-DNA mod: -1.5

Results for Cc1nc(Cc2nnc(SCc3cc4ccccc4nc3Cl)o2)cs1 ?
S aureus helic: 15

What do the screens show for `CCOC(=O)COc1ccc2c(c1)c(C(=O)OCC)c(C)n2CC`?
S aureus helic: -18

What do the screens show for `COC(=O)CCCCCCCC(=O)Nc1ccc(OC)cc1OC`?
MgrA-DNA mod: 4.2

How did N#Cc1ccc(COC(=O)Cc2noc3ccccc23)cc1 do in these assays?
S aureus helic: 7

What do the screens show for `Cc1ccc(S(=O)(=O)Nc2ccc3[nH]ccc3c2)cc1`?
MgrA-DNA mod: -1.0

How did COc1ccc(S(=O)(=O)NCc2ccc(C(=O)NCCCN3CC(C)CC(C)C3)cc2)cc1 (stereo unspecified) do in these assays?
S aureus helic: 13

Results for CC(=O)Nc1ccc2c(c1)sc(=NC(=O)c1ccc3ncsc3c1)n2C ?
S aureus helic: 14

Results for NC(=O)COC(=O)c1cc2nc(Nc3ccccc3)sc2s1 ?
S aureus helic: -23

Results for CSc1nc(C)nc(N(C)C)c1C#N ?
MgrA-DNA mod: -0.6

How did CCOc1ccc(S(=O)(=O)N2CCC(C(=O)N/N=C/c3cc(C)n(CC(C)C)c3C)CC2)cc1 do in these assays?
S aureus helic: 14

Results for NS(=O)(=O)c1cc(C(=O)NCCc2ccc3c(c2)OCCO3)ccc1Cl ?
S aureus helic: -6

Results for C=CCNC(=O)Cn1c(-c2ccc(F)cc2)nc2ccccc21 ?
MgrA-DNA mod: -1.4; S aureus helic: 13

What do the screens show for `CCNc1nc(-c2cc3ccccc3o2)cs1`?
S aureus helic: -7

Results for Cc1cc(=O)oc2cc(NC(=O)C3CCCC3)ccc12 ?
MgrA-DNA mod: 2.8; S aureus helic: -8

Results for CN(C(=O)c1cc(-c2ccco2)on1)c1ccccc1 ?
S aureus helic: -6

What do the screens show for `Cn1cccc1Cc1nnc(SCC(=O)N2CCc3ccccc32)n1CCc1ccccc1`?
MgrA-DNA mod: 1.4; S aureus helic: 10

Results for Cc1nc2cc(NC(=O)NC(C)(C)C)ccc2n1C ?
MgrA-DNA mod: -0.9; S aureus helic: 6

How did C=CCNc1sc(C(=O)c2ccc(Cl)cc2)c(N)c1C#N do in these assays?
MgrA-DNA mod: -1.8; S aureus helic: 0

Results for Clc1cccc(-c2nnc(-c3cccc(Cl)c3)o2)c1 ?
MgrA-DNA mod: -0.9

Results for CC(=O)Nc1ccc(C2SCC(=O)N2Cc2ccc3c(c2)OCO3)cc1 (stereo unspecified) ?
S aureus helic: -7

Results for CN(CC(=O)Nc1cccnc1)S(=O)(=O)c1ccc(Br)cc1 ?
MgrA-DNA mod: -3.6; S aureus helic: 4

What do the screens show for `Cc1ccc(-n2nc3c(N4CCCC(C(=O)NCCCN5CCCC5=O)C4)nnc(C)c3c2C)cc1` (stereo unspecified)?
S aureus helic: -16

How did CCCC(=O)Nc1cccc(-c2nc3ccccc3o2)c1 do in these assays?
MgrA-DNA mod: -1.3; S aureus helic: 14

What do the screens show for `Cn1c(=O)n(C)c2cc(/C=C(\C#N)C(N)=C(C#N)C#N)ccc21`?
MgrA-DNA mod: 23; S aureus helic: -14

How did Cc1cccc(-c2noc(-c3ccccc3)n2)c1 do in these assays?
MgrA-DNA mod: 2.1; S aureus helic: -26

Results for COc1ccc2c(=O)c(-c3cscn3)c(C(F)(F)F)oc2c1 ?
S aureus helic: 6

How did O=c1c(Cl)c(O)c2ccccc2n1Cc1ccccc1 do in these assays?
MgrA-DNA mod: 0.6

What do the screens show for `Cc1ccc(CS(=O)(=O)CCC(=O)NC2CC2)cc1`?
MgrA-DNA mod: -6.2; S aureus helic: 7

Results for CCc1ccc(-c2nc(CS(=O)CC(=O)NCc3ccccc3)c(C)o2)cc1 (stereo unspecified) ?
S aureus helic: -6

Results for O=C1Nc2ccccc2C12OCCO2 ?
MgrA-DNA mod: -0.8&0.3

How did CC(=O)Nc1cc2cc(-n3cccc3)ccc2oc1=O do in these assays?
MgrA-DNA mod: 3.3

Results for Cc1cc(-n2c(C)cc(C(=O)CSc3ccc(S(=O)(=O)N(C)C)cn3)c2C)no1 ?
S aureus helic: -4

How did O=C(Cn1nnc(N2CCCCC2)n1)c1ccc(Cl)cc1 do in these assays?
MgrA-DNA mod: -1.0

Results for COc1ccc(S(=O)(=O)N(CC(=O)NCCSCc2ccc(Cl)cc2)c2ccc(C)cc2)cc1OC ?
MgrA-DNA mod: 2.8

What do the screens show for `CC1(C)CC(OC(=O)c2ccccc2C(=O)OC2CC(C)(C)NC(C)(C)C2)CC(C)(C)N1`?
S aureus helic: -21

Results for O=C(Cn1nnc(N2CCCC2)n1)c1ccc(Cl)cc1 ?
MgrA-DNA mod: -3.5

Results for O=S(=O)(c1ccc2c(c1)CCO2)N1CCCN(c2ccc(C(F)(F)F)cn2)CC1 ?
MgrA-DNA mod: -2.3

Results for CCc1nc2ccccc2c(N)c1C ?
MgrA-DNA mod: -6.1; S aureus helic: 4

What do the screens show for `CCc1ccc(C2C(C#N)=C(N)N(N(C)C)C3=C2C(=O)CCC3)cc1` (stereo unspecified)?
S aureus helic: -25

Results for O=P(CN(Cc1cccs1)CC1CCCO1)(c1ccccc1)c1ccccc1 (stereo unspecified) ?
MgrA-DNA mod: 1.3; S aureus helic: 3

What do the screens show for `O=c1nc(Nc2ccccc2)[nH]c(=O)[nH]1`?
MgrA-DNA mod: -3.2; S aureus helic: 5

How did Cc1cccn2cc(-c3cccc(NS(=O)(=O)c4ccc(Cl)cc4)c3)nc12 do in these assays?
MgrA-DNA mod: 0.8; S aureus helic: 10

What do the screens show for `CN1CCC(N(C)C(=O)/C(=C/c2ccc(Cl)cc2)c2ccc(F)cc2)CC1`?
MgrA-DNA mod: -12; S aureus helic: -29

How did CN(C)S(=O)(=O)c1ccc(Nc2nc3ccccc3n3nnnc23)cc1 do in these assays?
S aureus helic: 16

Results for O=C1COc2ccccc2N1Cc1ccc(OC(F)(F)F)cc1 ?
MgrA-DNA mod: -0.6; S aureus helic: 1

How did O=C(COC(=O)c1cccc2ccccc12)Nc1ccccc1Cl do in these assays?
MgrA-DNA mod: -2.4; S aureus helic: 8

What do the screens show for `Cc1nn(-c2ccccc2)c2nc(-c3cccs3)cc(C(=O)OCC(=O)N3CCCC3)c12`?
S aureus helic: 9

Results for Cc1cccc(NC(=O)CN2N=NC3C(=O)N(c4cccc(Cl)c4)C(=O)C32)c1C (stereo unspecified) ?
S aureus helic: 21

Results for CC1CCc2c(C(=O)Nc3nccs3)csc2C1 (stereo unspecified) ?
MgrA-DNA mod: -1.1; S aureus helic: -15

How did CCOC(=N)c1ccc(C)c(Cl)c1 do in these assays?
MgrA-DNA mod: -2.3

How did O=C(Oc1ccccc1)C1C2CCCCC21 (stereo unspecified) do in these assays?
MgrA-DNA mod: -0.4; S aureus helic: 19

How did Cc1ccccc1-c1nnc2sc(NC(=O)C(C)C)nn12 do in these assays?
S aureus helic: -13

Results for Cc1ccc2n1CCn1cc(-c3ccccc3)cc1-2 ?
MgrA-DNA mod: 3.6; S aureus helic: -4

Results for CCOc1ccc(Br)cc1C1C(C(=O)OC)=C(N)Oc2cc(N(C)C)ccc21 (stereo unspecified) ?
MgrA-DNA mod: 0.7; S aureus helic: -1

Results for O=C(O)c1sccc1-n1cccc1 ?
MgrA-DNA mod: -4.4

Results for O=C(O)CCc1ccc(-c2cccs2)n1-c1ccccc1C(F)(F)F ?
MgrA-DNA mod: 4.8; S aureus helic: 4

What do the screens show for `CC1(C)C2CCC1(C)C(NC(=O)CC[N+](C)(C)Cc1ccccc1)C2` (stereo unspecified)?
MgrA-DNA mod: 0.7; S aureus helic: 6

What do the screens show for `CSc1nnc(C)c(=O)n1COC(=O)COc1ccccc1`?
S aureus helic: 14

What do the screens show for `CCOc1ccc(OCC)c(S(=O)(=O)N2CCN(c3ccccc3)CC2)c1`?
S aureus helic: 3

Results for Cc1cc(C)n(CCCC(=O)O)c(=O)n1 ?
MgrA-DNA mod: -6.2; S aureus helic: 9

What do the screens show for `COc1ccc(N(CC(=O)NCc2cccs2)S(=O)(=O)c2cccnc2)cc1`?
S aureus helic: 9

What do the screens show for `COC(=O)c1sccc1Oc1ccc(C(F)(F)F)cc1NC(=O)NS(=O)(=O)c1ccc(C)cc1`?
MgrA-DNA mod: -3.6

Results for NC(=O)Nc1nc2ccccc2[nH]c1=O ?
MgrA-DNA mod: 2.6; S aureus helic: 13

How did N#Cc1ccc(NC(=O)NCCc2c[nH]c3ccccc23)cc1 do in these assays?
S aureus helic: 16

What do the screens show for `Cc1ccnc(N2C(=O)OC(C)(C)C2(C)O)c1` (stereo unspecified)?
MgrA-DNA mod: -2.6; S aureus helic: 0

How did COc1cc2c(cc1OC)C1C(C(=O)NC3CCCC(C)C3C)c3ccccc3C(=O)N1CC2 (stereo unspecified) do in these assays?
MgrA-DNA mod: 0.9; S aureus helic: 7

Results for O=C(Nc1ccc(F)cc1)c1cc(N2CCN(c3ccc(F)cc3)CC2)nc2ccccc12 ?
MgrA-DNA mod: 1.1; S aureus helic: 5

Results for NC(=O)Cc1ccccc1Br ?
MgrA-DNA mod: -1.8

How did Cc1nnc(Sc2nc(Sc3nnc(C)s3)nc(N3CCCCC3)n2)s1 do in these assays?
MgrA-DNA mod: -2.1; S aureus helic: 8

Results for CCc1nc2ccccc2n1CCc1ccccc1 ?
MgrA-DNA mod: -9.6; S aureus helic: -5

What do the screens show for `N#C/C(=C\N1CCC(C(F)(F)F)CC1)S(=O)(=O)c1ccccc1`?
S aureus helic: -18

How did CC1=C(C#N)C(NC(=O)c2ccncc2)(C(F)(F)F)C(=O)N1 (stereo unspecified) do in these assays?
MgrA-DNA mod: 0.2; S aureus helic: 7

Results for CCCN(CCC)C(=O)CSc1ccc(C)cc1 ?
MgrA-DNA mod: -1.8; S aureus helic: 22

How did Brc1cc2c(cc1CSc1nnc(Cc3ccccc3)o1)OCO2 do in these assays?
S aureus helic: 11

What do the screens show for `C(=N\NC1=NCCCCC1)/c1cn(-c2ccccc2)nc1-c1cccnc1`?
S aureus helic: 19

What do the screens show for `CC(C)(C)C/C(=N/O)c1ccccc1`?
MgrA-DNA mod: 0.2; S aureus helic: 1

How did O=C(CSc1ccccc1Cl)Nc1ccc(N2CCOCC2)cc1 do in these assays?
MgrA-DNA mod: -1.2; S aureus helic: -5

Results for CCOC(=O)/C(C#N)=N\Nc1cc(C)cc(C)c1 ?
MgrA-DNA mod: 4.0; S aureus helic: 2

Results for N#C/C(=C\Nc1cccnc1)S(=O)(=O)c1ccc(Cl)cc1 ?
MgrA-DNA mod: -0.4

How did Cc1cccc(N2CCN(C(=O)Cn3c(=O)[nH]c4ccsc4c3=O)CC2C)c1 (stereo unspecified) do in these assays?
S aureus helic: 4

How did Cc1ccc(NC(=O)N2Cc3cccn3-c3cccnc32)c(C)c1 do in these assays?
S aureus helic: 13

What do the screens show for `O=C(CSc1nnc2c(n1)CCCC2)c1ccc2c(c1)OCCO2`?
MgrA-DNA mod: 0.6; S aureus helic: 7

Results for O=C(O)CCCN1C(=O)CCC1=O ?
MgrA-DNA mod: -3.2; S aureus helic: -3

High-throughput results (PubChem BioAssay)
